# Compound activity: PubChem BioAssay, ICCB-Longwood Screening Facility, Harvard Medical School
# AID504770: growth inhibitors of E. coli YBA685 in a screen for V. cholerae RctB (chromosome II replication) inhibitors; E. coli YBA685 rctB-dependent plasmid, OD600 growth, 3 h; hits give low values; z-score (test concentration not listed); actives 0.27% (n = 130,000); AID 504770;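 active = z-score under -2 on both plates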;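 note: wells of about 30 µL received 100 nL stock; score is relative to mean and SD of the test wells; the first replicate is given; strong numbers were not always called active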
# Ba CapD inh: inhibitors of Bacillus anthracis CapD enzyme. z-score (test concentration not listed). AID 492967. purified CapD enzyme, fluorescence intensity read-out; hits give low values; some hits fall short of the stated cut. actives 0.23% (n = 140,000);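 active = z-score under -4 in either of two replicates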;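 note: stock transfer was 100 nL into about 40 µL; score is relative to mean and spread of the plate; one replicate is shown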
# The depositor's hits bear a star; i = inactive; . = not tested or not shown.
SMILES,AID504770,Ba CapD inh
COc1cc(OC)cc(C(=O)NCc2nnc(SCC(=O)N3CCc4ccccc43)n2-c2ccccc2OC)c1,.,-1.4
O=C1Nc2ccccc2C12NCCc1c2[nH]c2ccccc12 (centres undefined),-0.35,.
O=[N+]([O-])c1cc(-c2nc(-c3ccccc3)c(-c3ccccc3)[nH]2)c(O)c([N+](=O)[O-])c1,.,-0.37
Cc1ccc2c(c1)sc(=NC(=O)C(C)C)n2C,-0.3,0.57
Cc1nn(Cc2ccccc2)c2sc(C(=O)OCC(=O)N(C)C)cc12,0.15,.
COC(=O)Cc1ccc(Oc2ncc(C(F)(F)F)cc2Cl)cc1,2,-0.29
COC(OC)c1cc(=O)[nH]c(SCc2ccc(Cl)cc2)n1,-0.35,-0.11
O=C(Nc1ccc(-c2ccc(N3CCCC3)nn2)cc1)C(F)(F)F,-0.4,.
O=C(Cc1ccc(Cl)cc1)OCc1nnc(-c2ccccc2)o1,-0.35,.
CCN(CC)S(=O)(=O)c1ccc(/C(O)=C2\C(=O)C(=O)N(CCOC)C2c2ccccc2F)cc1 (centres undefined),-0.9,0.025
CC(=NCc1ccc(F)cc1)c1ccccc1O,.,0.37
Cc1ccc(CS(=O)Cc2ccc(C(=O)NC3CCCCC3)o2)cc1 (centres undefined),1.8,-0.15
Cc1cccn2c(=O)c(C=C(C#N)C#N)c(Sc3nc4ccccc4s3)nc12,-0.25,.
CC(=O)N1CC(=O)Nc2ccc(Br)cc2C1c1ccccc1Cl (centres undefined),.,0.17
COc1ccc(CCn2cnc3sc4c(c3c2=N)CCCC4)cc1OC,0.25,-0.72
C=CCN(CC=C)Cc1c(C)[nH]c2ccc(OC)cc2c1=O,-0.25,80
O=C(CN1CCCCC1)Nc1ccc(Cl)cc1C(=O)c1ccccc1Cl,.,0.19
CC(CC(=O)O)CC(=O)Nc1ccc(F)cc1 (centres undefined),-0.2,0.51
O=C1c2ccccc2-c2n[nH]c(=O)c3ccc(N4CCCC4)c1c23,-0.6,0.05
Nc1cc(=O)[nH]c(S/C=C/c2ccccc2)n1,1.1,2
COC(=O)c1ccccc1NC(=O)C1CCN(S(=O)(=O)c2ccc(OC)c(OC)c2)CC1,0.35,0.38
Cc1nc(SCc2ccccc2)nc2c1CCC2,0.6,0.35
CC(C)NC(=O)CCCc1nnc2n3nc(-c4ccccc4)nc3c3ccccc3n12,-0.35,-0.055
CCOc1ccccc1NC(=O)N1CCCN(c2ncccc2C#N)CC1,-0.3,42
COc1ccc(CC#N)cc1OC,-1,-0.085

# (continued)
SMILES,AID504770,Ba CapD inh
COc1ccc(C(=O)N=C(N)COc2ccccc2Cl)cc1,-0.8,0.15
COC(=O)c1ccc(C)c(NC(=O)CC2CCCC2)c1,-0.5,.
Cc1[nH]c2ccccc2c1SCCN,0.1,.
Cc1ccc(NC(=O)Cn2nnc(-c3ccccc3)n2)cc1,-0.2,-0.49
CC(C)(C)S(=O)(=O)c1cnc(N2CCCCC2)nc1N,.,-0.16
Cc1ccc(N(CC(=O)Nc2cccc(C)c2)S(=O)(=O)c2c(C)n[nH]c2C)cc1,-0.35,-0.31
OC(CN1CCN(C/C=C/c2ccccc2)CC1)Cn1c2ccccc2c2ccccc21 (centres undefined),.,9.9
O=C(NCCc1ccncc1)OCc1ccccc1OC(F)(F)F,.,0.68
CC1(C)CC(=O)C2=C(C1)c1c(ccc3ccccc13)NC2c1cc([N+](=O)[O-])cc([N+](=O)[O-])c1O (centres undefined),.,0.91
Cc1ccc(C(=O)CC2(O)C(=O)N(CN3CCCCC3)c3ccc(Br)cc32)cc1 (centres undefined),.,-0.35
CC(=O)Nc1ccc(N=Cc2nc(-c3ccccc3Br)oc2O)cc1,.,-0.21
CC1=C(C(=O)Nc2ccccc2)C(c2ccccc2)C2=C(N1)c1ccccc1C2=O (centres undefined),-0.1,-0.17
CCCn1c(=O)c(C#N)cn(C2CC2)c1=O,-0.25,1.2
CC1=NN(c2ccc(C(=O)O)cc2)C(=O)C1,-0.45,-0.03
c1ccc2c(c1)ccc1oc(=Nc3ccc(Oc4ccc(N=c5oc6ccc7ccccc7c6cc5-c5nc6ccccc6s5)cc4)cc3)c(-c3nc4ccccc4s3)cc12,.,-0.17
Cc1c(C)[n+]([O-])c2ccc3c(non3O)c12,-2.2*,-3.2
CCOC(=O)Cc1csc(N2CCOCC2)n1,-0.7,.
COc1c(S(=O)(=O)n2nnc3ccccc32)ccc(Cl)c1Cl,.,-0.04
O=C(NCC1CCCO1)c1cc(NS(=O)(=O)c2cccs2)cc(NS(=O)(=O)c2cccs2)c1 (centres undefined),0.35,.
NNC(=S)Nc1ccc(S(=O)(=O)N2CCCCC2)cc1,.,1.6
Cc1ccc(C)n1-c1nnc(N2CCC(C(=O)NC(C)c3ccc4c(c3)OCCO4)CC2)s1 (centres undefined),0.2,-0.11
Cc1ccc(CS/C(Nc2ccccc2C)=C(\C#N)C(N)=O)c(C)c1,.,0.015
COc1cc([N+](=O)[O-])ccc1N1C(=O)C2C3c4ccccc4C(c4ccccc43)C2C1=O (centres undefined),.,0.48
CN1c2ccccc2Sc2cc(C=C(C#N)C#N)ccc21,0.95,.
CC(C)Cn1c(CCCO)nc2ccccc21,-1.4,0.77

# More results:
SMILES,AID504770,Ba CapD inh
CCN(Cc1ccccc1)C(=O)c1cccc(N2C(=O)CCC2=O)c1,0.1,0.39
CCCn1c(NC(=O)[C@@H](NS(=O)(=O)c2ccccc2)C(C)C)nc2ccccc21,-0.25,.
CC(C)OC(=O)c1cc2c(ccn2C)n1CCC#N,0.2,.
O=C(CCl)N1CCN2C(=O)c3ccccc3C12c1ccc(Cl)cc1 (centres undefined),.,-0.35
O=C(C(c1ccccc1)c1ccccc1)N1CCC(c2c[nH]c3ccccc23)CC1,.,-0.75
Cc1ccccc1C1(c2ccccc2C)CC1C(=O)Nc1ccccc1 (centres undefined),.,-0.31
CCn1c(SCC(=O)Nc2ccccc2SCC(N)=O)n[nH]c1=O,0.65,.
Oc1ccc2ccccc2c1C(c1ccccc1)N1CCCCC1 (centres undefined),-1.1,13
CCCS(=O)(=O)N1CCC(C(=O)NCc2cccnc2)CC1,-0.2,.
Cc1nnc(SCC(=O)N(C(C)C)C(C)C)[nH]c1=O,-0.6,.
S=C(NCC1CC1)NCC1CC1,.,0.59
CSc1nc(C)nc(Sc2ccccn2)c1C#N,-0.35,0.76
NS(=O)(=O)c1ccc(CCNC(=O)CSc2nc3ccccc3c(=O)n2CCCC(=O)NCc2ccco2)cc1,.,-0.34
CC(C)(C)n1c(-c2ccncc2)n[nH]c1=S,0.25,-0.68
CCCCn1nc(C(=O)Nc2ccc3nc(C)sc3c2)ccc1=O,-0.5,.
Cc1ccccc1[C@@H]1C(C#N)=C(N)S[C@H]1C(=O)c1ccccc1,.,-0.11
O=C(c1snc2ccc(Cl)cc12)N1CCN(c2ccccc2)CC1,1.5,-0.91
Cc1c(C(C)C)c(=O)oc2cc(O)ccc12,2.2,75
Cc1cc(C)c(COC(=O)c2nonc2N)c(C)c1,-0.35,-0.28
Cc1ccc(N=C2CSc3nnc(-c4cccnc4)n3N2)cc1,-0.75,-0.21
O=C(CSCc1nc2scc(-c3cccs3)c2c(=O)[nH]1)Nc1nc2c(s1)CCCC2,0.25,.
O=C(COC(=O)c1cccc(Cl)c1)c1ccccc1,-0.6,-0.33
COc1ccc(Nc2nc(-c3cc4cc(Br)ccc4oc3=O)cs2)c(OC)c1,.,-1.8
FC(F)(F)c1cccc(NCn2nc(-c3ccccc3)oc2=S)c1,-1.1,2.1
Cc1n[nH]c(C)c1Cc1ccc(N)cc1,-0.55,.

# Next compounds.
SMILES,AID504770,Ba CapD inh
CN1CCN(CCC(O)COc2ccc(OCC(O)CCN3CCN(C)CC3)cc2)CC1 (centres undefined),-0.05,.
C=CCn1c(=O)c2ccccc2n2c(SCC)nnc12,-0.3,.
Cc1c(C#N)c2ccccn2c1C(=O)NN,0.05,.
CCOC(=O)c1cc(-c2ccccc2)sc1NC(=O)COC(=O)c1ccco1,-0.55,.
CC1(C)C(C=C(Cl)Cl)C1C(=O)N1CCCCC1 (centres undefined),2,-0.23
CC1(O)C=CC(C(C)(C)O)CC1 (centres undefined),.,-0.66
Cc1nn(CCC#N)cc1/C=N/NC(=O)CSc1nc2ccccc2[nH]1,-0.95,.
CCCCC(C(=O)O)n1c(O)c(C2=c3ccccc3=NC2=O)sc1=S (centres undefined),-0.4,.
CCC(Sc1nnc(C)n2c1cc1oc(C)cc12)C(=O)Nc1cccc(OC)c1 (centres undefined),-0.75,0.31
COc1ccc(OC)c(C2C(C(=O)Nc3nc4ccc(Br)cc4s3)=C(C)NC3=C2C(=O)CC(C)(C)C3)c1 (centres undefined),.,3
c1ccc(-c2nc3ccccn3c2Nc2ccc3c(c2)OCCO3)cc1,-0.35,61
COC(=O)c1ccc(S(=O)(=O)NNc2ncnc3cc(C(C)(C)C)sc23)n1C,-0.15,0.24
CC(C)c1ccc(S(=O)(=O)N2CCCCC2)cc1,2.3,-0.59
CCC(=O)Nc1cccc(Br)c1,1.1,-0.2
Cc1ccc(SCCC(=O)N2CCN(c3ncc(C(F)(F)F)cc3Cl)CC2)cc1,-0.45,0.33
Cn1c(SCC(=O)c2ccc3c(c2)NC(=O)CO3)nc2ccccc21,0.05,.
Cc1noc(C)c1C(=O)Oc1ccc(-c2csnn2)cc1,-0.5,0.61
CC(C)(C)C(=O)OC1OCCOC1OC(=O)C(C)(C)C (centres undefined),0.1,.
COc1ccc2nc(NC(=O)CC(C)(C)C)sc2c1,1.5,-0.18
COc1ccc(CNC(=O)c2coc(=O)c3ccccc23)cc1,-0.7,-0.83
CC(C)(C)c1ccc(OC(F)(F)C(=O)Nc2ccc(Cl)cc2)cc1,.,0.37
O=C(COc1ccc(-c2nccc(-c3ccccn3)n2)cc1)NC1CCCCC1,.,-0.12
COCCN(Cc1cc2cc3c(cc2nc1Cl)OCO3)C(=O)Nc1ccccc1OC,-0.4,.
O=C(NCc1ccccn1)c1cc(-c2cccnc2)nc2ccccc12,-0.7,0.21
Clc1cccc(-n2cc(-c3ccccc3)c3c(NCc4ccccn4)ncnc32)c1,.,0.98

# Additional entries:
SMILES,AID504770,Ba CapD inh
COc1cc(NC(=S)N(C)C)cc(OC)c1,-0.55,0.27
CC1=Nc2cc(C(=O)O)ccc2Sc2ccc(C)cc21,1,-0.24
COc1ccc(-c2nnn(CC(=O)N(Cc3ccccc3)C(C)C(=O)NC3CCCC3)n2)cc1OC (centres undefined),-0.05,.
CC1CC(OCC(O)CN2CCN(c3ccccc3F)CC2)CC(C)(C)C1 (centres undefined),-0.55,-0.57
COC(=O)c1scc(C)c1S(=O)(=O)Nc1ccc(C)cc1,0.2,0.35
O=C(CC(CC(=O)C1CC1)c1ccc(Br)cc1)NCc1ccc(-c2csnn2)cc1 (centres undefined),.,0.66
CC(OC(=O)Cc1coc2cc3c(cc12)CCC3)C(=O)Nc1ccc2c(c1)OCO2 (centres undefined),-0.3,.
CCCN(C(=O)C1CC(=O)N(c2ccccc2C(C)CC)C1)C1CCS(=O)(=O)C1 (centres undefined),-0.2,.
CC(C)NS(=O)(=O)c1ccc(OCC(=O)NC(C)(C)C)c(Cl)c1,0.8,-0.035
CCCN1C(=O)C(CC(=O)Nc2ccccc2)SC1=Nc1ccc(S(=O)(=O)N2CCOCC2)cc1 (centres undefined),-0.8,.
C=CCOc1cccc(/C=C2/SC(=S)N(CCc3ccccc3)C2=O)c1,1,0.44
O=C(NC1CCSC1=O)c1cc2cccc3c2n(c1=O)CC3 (centres undefined),.,2.4
COC(=O)C(C(=O)N1CCN(Cc2ccccc2)CC1)C1CCCC1 (centres undefined),0.85,-0.76
CSc1nc(-c2ccc(Cl)cc2)nn1S(=O)(=O)c1ccc(C)cc1,0.6,0.76
CC(C)CCn1cnc2c(NCc3ccccc3)ncnc21,-1.5,0.29
CC(=O)OCC1OC2OC3(CCCCC3)OC2C2OC3(CCCCC3)OC12 (centres undefined),.,-0.055
CCc1cccc(NC(=O)C(NC(=O)C2CCC(C)CC2)C(C)C)c1 (centres undefined),-1.2,-0.25
Cc1cc(Cc2cc(C)c(N)c(C)c2)cc(C)c1N,-0.05,i
Cc1ccc(-c2cc(NC(=O)CN3CC(C(=O)N4CCOCC4)Oc4ccccc43)on2)cc1 (centres undefined),1.2,.
